Screening data (PubChem)
VACV Venus inh: vaccinia inhibition (Venus reporter) | Vaccinia virus Venus reporter expression, fluorescence | Potency, µM (series often up to 36.5 µM), for the others: at the top dose activity change, negative = inhibition, hits mostly inhibitors | actives 0.46% (n = 330,000) | AID 720580; active means well fitted inhibition curve with a large enough effect; inconclusive means small, poorly fitted or top-dose-only effect; inactive means no such curve, though single readings can be large or run the other way; tested in A549 cells; also: nearly all actives have a fitted effect of over 30% in size; inactives centre near -10
VACV mCherry inh: vaccinia inhibition (mCherry reporter). Vaccinia virus mCherry reporter infection, fluorescence; about a quarter of the inactives have no number. Potency, µM (top dose mostly 36.5 µM), without a hit: top-dose activity change, negative = inhibition, hits mostly inhibitors. actives 0.63% (n = 310,000). AID 720579; active = well fitted inhibition curve with a large enough effect; inconclusive = small, poorly fitted or top-dose-only effect; inactive = no such curve, though single readings can be large or run the other way; tested in A549 cells; also: nearly all actives have a fitted effect of over 35% in size; inactives centre near -10
An asterisk follows results filed as active; i = inactive; ? = inconclusive; nt = no result given; & = joins results of further samples; [ ] = remark or other dose. % is scaled to controls: 0 for no effect and ±100 for the full control effect; potency is read from the fitted curve at half-maximal effect.

SMILES	VACV Venus inh	VACV mCherry inh
CC(C)(C)S(=O)N1Cc2cc(=O)n(Cc3ccccc3)c(CCO)c2[C@H]1CCO (stereo partly drawn)	-16%	i
C/C(=N/NC(=O)CC1N=C(Cc2ccccc2)NNC1=O)c1cccnc1 (stereo not drawn)	6%	0%
O=C(Nc1ccc(S(=O)(=O)N2CCOCC2)cc1)c1ccc2c(c1)S(=O)(=O)c1ccccc1C2=O	-10%	-23%
CC(NC(=O)C1CCCN(S(=O)(=O)c2cccc3nonc23)C1)c1ccccc1 (stereo not drawn)	-15%	-2%
Cc1ccc(S(=O)(=O)NCc2cccnc2)cc1C(=O)N1CCCC1	-13%	i
O=C(C1CCN(c2ncnc3c2nc2n3CCCCC2)CC1)N1CCN(c2ccccc2)CC1	-13%	-1%
CN1CCN(C(=O)C2CCCN(c3ncnc4c3nc3n4CCCCC3)C2)CC1 (stereo not drawn)	0%	-5%
NC(=O)C1CCCN(CCc2ccccc2)C1 (stereo not drawn)	-3%	i
CCOC(=O)N1CCC(NC(=O)c2ccccc2C(=O)O)CC1	-13%	i
Cc1ccc(NC(=S)N(Cc2ccco2)C(C)c2cccs2)c(Cl)c1 (stereo not drawn)	-7%	-19%
Cc1ccc(C(=O)Nc2ccc(Oc3ccc(C(=O)O)c(C(=O)O)c3)cc2)cc1C	-23%	nt
COc1cccc(CN2CCC(CO)(CC3CCCCO3)CC2)c1 (stereo not drawn)	-20%	-21%
COc1cccc(OC)c1C(=O)Nc1nc2c(s1)CCc1ccccc1-2	-6%	-3%
CCc1cc(S(N)(=O)=O)cc(CC)c1NC(C)=O	-11%	i
CCC1CCC/C1=N\NC(=O)CCC(=O)Nc1ccccc1Cl (stereo not drawn)	-9%	-15%
CS(=O)(=O)Nc1cccc(-c2nc(NCc3cccs3)c3ccccc3n2)c1	-22%	-30%
CCNC(=O)c1cc2c(=O)n3cccc(C)c3nc2n(CCc2ccccc2)c1=N	-5%	-7%
CC(C)(C)c1ccc(C(=O)NN=C2CCCC2)cc1	-10%	i
COCCCNC(=O)C1CCN(C(=O)c2cc3sccc3n2Cc2ccc(Cl)cc2)CC1	-18%	-10%
Cc1ccc([C@H]2C[C@H](O)[C@@H](n3cc(-c4ccc(F)cc4)nn3)CN2Cc2cccs2)cc1	?	?
COC(=O)c1c(C)sc(-c2c(-c3ccc4c(c3)OCCO4)[nH]c3c2c(=O)[nH]c(=O)n3C)c1O	0%	-13%
COc1ccccc1NC(=O)CSc1oc(-c2ccco2)nc1S(=O)(=O)c1ccc(Br)cc1	-11%	-15%
Cc1cccc(/C(N)=N/OC(=O)c2cccs2)c1	-16%	i
C[C@H](NC(=O)OCc1ccccc1)c1nnc([C@H](C)NC(=O)OCc2ccccc2)o1	-11%	i
CC(C)(C)C1CCC(C(=O)OCC(=O)c2ccc[nH]2)CC1 (stereo not drawn)	-11%	-6%
NC(Cc1ccc(Cl)cc1)c1csc(Nc2ccc(C(F)(F)F)cn2)n1 (stereo not drawn)	-19%	?
CCOc1ncccc1C(=O)OCCN1C(=O)c2ccccc2C1=O	-7%	-15%
CC(=O)Nc1ccc(N/C=C(\C#N)S(=O)(=O)c2ccc(Cl)cc2)cc1	-16%	i
Cn1c(=O)c2c(nc(SCc3nn[nH]n3)n2Cc2ccccc2F)n(C)c1=O	-11%	nt
Cc1ccc(CNC(=O)C(NS(=O)(=O)c2cccc3nsnc23)c2ccccc2)cc1 (stereo not drawn)	-8%	i
CCSc1nnc(NC(=O)[C@H](C)NC(=O)c2ccccc2Cl)s1	-6%	-3%
COc1ccccc1N1CCN(c2nc(CNC(=O)c3ccc(C)c(C)c3)nc3ccccc23)CC1	0%	i
O=C1CCCC/C1=C/NCc1ccccc1	10%	i
CCN1CCN(C(=O)COc2ccc(S(=O)(=O)N3CCOCC3)cc2C)CC1	4%	-11%
CN1CCN(Cc2nc3c(c(=O)n(C)c(=O)n3C)n2Cc2cccc3ccccc23)CC1	-13%	-8%
Cc1ccccc1N(CC(=O)NC1CCCCC1)C(=O)CNC(=O)c1cccs1	-10%	-9%
Cc1c(Cl)cccc1-c1ccc(C(=O)Nc2ccc(F)cc2)o1	8%	0%
S=c1[nH]nc(-c2ccco2)n1-c1ccccc1Cl	-4%	i
c1ccc(CSc2nnc(C3CCNCC3)o2)cc1	-5%	-9%
Cc1ccc(NC(=O)Cn2nnc3ccccc3c2=O)cc1C	1%	i

Given with values under each structure: three of the compounds above
Below each compound: VACV Venus inh | VACV mCherry inh
COc1ccccc1N1CCN(c2nc(CNC(=O)c3ccc(C)c(C)c3)nc3ccccc23)CC1
    0% | i
CC(=O)Nc1ccc(N/C=C(\C#N)S(=O)(=O)c2ccc(Cl)cc2)cc1
    -16% | i
COC(=O)c1c(C)sc(-c2c(-c3ccc4c(c3)OCCO4)[nH]c3c2c(=O)[nH]c(=O)n3C)c1O
    0% | -13%

The results go on:
SMILES	VACV Venus inh	VACV mCherry inh
O=C(NCc1cccc2ccccc12)c1cccs1	-13%	-14%
O=C(Nc1ccc(S(=O)(=O)Nc2nccs2)cc1)C(F)(F)F	-11%	i
COc1ccsc1C(=O)Nc1ccc(F)cc1F	1%	-3%
COc1ccc(Cc2noc(-c3ccc(OC)c(OC)c3)n2)cc1OC	-12%	-19%
O=C(O)[C@H]1CCCC[C@H]1C(=O)Nc1ccc(Nc2ccccc2)cc1	-5%	-12%
CCOC(=O)c1c(C)[nH]c(CCC(=O)NCCCN2CCN(c3cccc(Cl)c3)CC2)c1C	-21%	-23%
CCOC(=O)C(CC(=O)Nc1nc(C(C)=O)c(C)s1)C(C)c1ccccc1 (stereo not drawn)	-10%	i
Cc1nc2sccn2c(=O)c1S(=O)(=O)Nc1ccc(N2CCN(C)CC2)cc1	-12%&-5%	-1%&-12%
O=C(O)c1ccccc1SCc1csc(-c2ccccc2)n1	0%	i
Cc1cccc(-n2ccc(=O)c(C(=O)O)n2)c1	-8%	i
COc1ccc(Cl)cc1NC(=O)NCc1noc2ccccc12	-12%	-8%
O=C(NCc1ccc(F)cc1)C(Cc1ccccc1)NS(=O)(=O)c1cccs1 (stereo not drawn)	-19%	-25%
CCOC(=O)C1=C(O)/C(=C/c2ccc(-c3ccccc3C(=O)O)o2)SC1=Nc1ccc(OC)cc1	-1%	nt
COc1cccc2c(=O)n(CC(=O)Nc3cccc(F)c3)ccc12	-7%	i
COc1ccc(-c2noc(N(c3nc(-c4ccc(OC)c(OC)c4)no3)c3ccccc3OC)n2)cc1OC	-10%	-8%
CCN(Cc1nc2ccccc2n1C)c1ccccc1	-9%	-1%
O=C(OCc1ccccc1)N1CCC2CC1c1cc(N3CCN(C(=S)NCCc4ccccc4)CC3)ccc12 (stereo not drawn)	-18%	16%
CCC1CN(C(=O)N2CCC(C(=O)NCc3ccco3)CC2)c2cc(C)ccc2O1 (stereo not drawn)	-7%&-19%	-20%&2%
Cc1ccc(C)c(N2N=C(C(=O)OCc3nnc(-c4ccccc4)o3)CCC2=O)c1	-9%	i
Cc1cc(C)c(OCCCCN(C)C)c(Br)c1	6%	-5%

Sorted by SMILES length (largest number first): part of the list above
SMILES	VACV Venus inh	VACV mCherry inh
O=C(O)[C@H]1CCCC[C@H]1C(=O)Nc1ccc(Nc2ccccc2)cc1	-5%	-12%
CCC1CCC/C1=N\NC(=O)CCC(=O)Nc1ccccc1Cl (stereo not drawn)	-9%	-15%
S=c1[nH]nc(-c2ccco2)n1-c1ccccc1Cl	-4%	i

(further entries)
SMILES	VACV Venus inh	VACV mCherry inh
COc1cccc(-c2cnc(C(O)c3ccc(F)c(C)c3)[nH]2)c1 (stereo not drawn)	1%	22%
CCCn1cc(S(=O)(=O)c2ccc(OC)cc2)c(=O)c2cc(OC)ccc21	-5%	i
O=C(NC(Cc1ccccc1)c1nc2ccccc2[nH]1)c1ccc(Cl)c([N+](=O)[O-])c1 (stereo not drawn)	9%	-14%
CCCn1c(SCC(=O)NCC(=O)Nc2ccc(F)c(F)c2F)nc2ccccc2c1=O	-16%	i
Nc1cc(S(=O)(=O)N2CCCCC2)ccc1N1CCOCC1	-19%	-9%
CC(Cc1cccs1)NC(=O)Nc1ccc(F)cc1 (stereo not drawn)	-16%	-17%
Cc1cc2c(c(SCC#N)n1)C(=O)OC2	-16%	i
Cn1cnnc1SCC(=O)c1ccc(O)c(O)c1	4%	i
CCN1C(=O)CC(C(=O)Nc2ccc(OC)cc2)SC1=Nc1ccc(C)c(C)c1 (stereo not drawn)	-9%	-26%
Cc1ccc(C)c(CN2C(=O)CSc3ccc(C(=O)NCCN4CCOCC4)cc32)c1	-1%	-2%
O=C(Nc1ccc(NC(=O)c2ccccc2F)cc1)c1ccccc1F	-11%	-15%
COCc1cc(C)nc2sc3c(c12)NC(c1ccc(NC(C)=O)cc1)N(c1ccc(C)cc1)C3=O (stereo not drawn)	-11%	-13%
CCn1c(SCC(=O)NC2CC2)nnc1-c1ccncc1	-10%	i
Cc1c(C(=O)OCC(=O)NCC2CCCO2)oc2ccccc12 (stereo not drawn)	-3%	i
O=c1oc2c(CN3CCCC3)c(O)ccc2cc1-c1ccccc1	-10%[7.34 µM]	-5%[7.34 µM]
CC12CCC(=O)N1C(C(=O)NNC(=O)c1ccc(F)cc1)CS2 (stereo not drawn)	-21%	-8%
Cc1ccc(C)c(NS(=O)(=O)c2cc(C(=O)N3CCc4ccccc4C3)ccc2Cl)c1	-16%	-6%
COc1ccc(C(C)=O)cc1COC(=O)c1cnc(Cl)c(Cl)c1	2%	0%
COc1cc(C=O)ccc1Oc1cnccn1	-18%	-16%
CC(O)(COc1ccccc1)c1ccc2c(c1)CN(Cc1cccnc1)CCO2 (stereo not drawn)	-5%	-19%
COc1ccc(C)cc1NCc1nnc2n1CCCCC2	10%	8%
O=C(O)c1cc(S(=O)(=O)NCCCN2CCCC2=O)ccc1Cl	-4%	-15%
Cc1ccc(/C=C/C(=O)Nc2ccc(S(=O)(=O)Nc3cc(C)nc(C)n3)cc2)cc1	2%	-6%
Cc1ccc(C)c(S(=O)(=O)N2CCN(C(=O)CCNS(=O)(=O)c3ccccc3)CC2)c1	-22%	-23%
O[C@@H]1CN(C2CCCCC2)CC[C@H]1N1CCN(CCc2ccccc2)CC1	?	-26%
Cc1ccccc1CSc1nnc2ccc(-c3ccncc3)nn12	0%	-17%
CCOC(=O)Cn1c(=O)c2c(nc(N3CCCCC3)n2Cc2ccccc2)n(C)c1=O	?	nt
CC1C2Cn3c(nc4ccccc43)C1N(C)O2 (stereo not drawn)	3%	i
Cc1ccc(Nc2nnc(SCn3nnc4ccccc4c3=O)s2)cc1	-26%	nt
CC(=O)Nc1ccc(S(=O)(=O)NC(CC(=O)N(C)Cc2ccccc2)C(C)C)cc1 (stereo not drawn)	-10%	-12%
CCOC(=O)c1c(C)nc2sc(C(N)=O)c(N)c2c1-c1ccccc1	?	nt
Cc1cc(F)ccc1S(=O)(=O)Nc1ccc2c(c1)CCCN2C(=O)c1cccs1	-27%	-28%
CCOc1ccc(NCc2ccccc2OCc2cccc(F)c2)cc1	-8%	-14%
CCc1nc2ccc(C(=O)NCCCn3ccnc3)cn2c1N(C)Cc1ccc(N(C)C)cc1	0%	44%[activator]
COc1ccc([N+](=O)[O-])cc1NC(=S)NC(=O)C(C)(C)C	-9%	?
COc1nc(-c2ccccc2)cc(-c2ccc3c(c2)OCO3)c1C#N	-19%	-2%
COc1cc(OC)c(-c2noc(C(=O)OC(C)(C)C)c2C(=O)OC(C)(C)C)c(OC)c1	-21%	-2%
CCOC(=O)c1c(NC(=O)COC(=O)Cn2c(C(F)(F)F)nc3ccccc32)sc(C)c1C	-11%	nt
COC(=O)c1cc(OC)c(OC)c(OC)c1[N+](=O)[O-]	5%	i
CCc1noc(C)c1C(=O)OC(C)C(=O)Nc1cc([N+](=O)[O-])ccc1OC (stereo not drawn)	-8%	i
CC(=O)c1ccc(OCC(=O)c2ccc(-c3ccccc3)cc2)cc1	-11%	i
O=C(NNC(=O)C1CCN(c2ncccn2)CC1)c1ccc(F)cc1	-8%	-2%
O=C(O)COc1ccc(/C=N/NC(=O)c2ccc(-c3csc(Nc4ccc(Cl)cc4)n3)cc2)cc1	3%	-20%
Cc1ccc(C(C[N+](=O)[O-])Sc2ccc(N)cc2)cc1 (stereo not drawn)	-4%	?
O=C(O)c1cccnc1Sc1ccccc1	0%	-10%
COc1ccc(CNC(=O)C(OC(=O)c2cccs2)C(C)C)cc1 (stereo not drawn)	-2%	-10%
Cc1c(NC(=O)c2cccc(NC(=O)Cc3ccc(F)cc3)c2)c(=O)n(-c2ccccc2)n1C	-11%	-13%
COc1cc2sc(-c3ccc(S(C)(=O)=O)cc3)c(C#CCO)c2cc1OC	?	-12%
CCN(C[C@H]1N[C@@](CC)(C(=O)OC)[C@H]2C(=O)N(C)C(=O)[C@@H]12)S(=O)(=O)c1ccccc1	-4%	i
O=C(NC1CC1)C1=C[C@H](c2ccc(C(F)(F)F)cc2)C[C@H](OCCCCO)O1	-21%	-12%
O=C(NC1CCCc2ccccc21)c1ccccc1OC(F)F (stereo not drawn)	-6%	?
O=c1oc2ccc3ccccc3c2cc1-c1nnc(-c2cccs2)o1	-3%	i
